# Sfp PPTase inh – blocks B. subtilis Sfp PPTase activity. Q9F4F7. Biochemical Sfp PPTase activity, qHTS. Potency, µM, without a hit: max response, negative = inhibition, actives largely listed as inhibitors. 310,000 compounds, 3.5% hits. AID 1490; active means well fitted inhibition curve with a large enough effect; inconclusive means small, poorly fitted or top-dose-only effect, or another doubt; inactive means no such curve, though single readings can be large or run the other way;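 further: the enzyme is Sfp with the accession as filed and its product quenches rhodamine fluorescence; potency means the concentration at half of the fitted maximal effect; 0% = enzyme reaction without inhibitor and -100% = no enzyme wells; top concentration of the series not given in the record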
#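 With Hepes-Na pH 7.6 buffer containing 10 mM MgCl2, Sfp (15 nM) modified BHQ-2-YbbR (12.5 uM) using rhodamine-CoA (5 uM). Two reads 30 minutes apart at 525/598 nm yielded each well's rate.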
# TRPML1 inh – human mucolipin-1 channel inhibition; Q9GZU1; TRPML1-inducible cells, Ca2+ dye fluorescence, FDSS; active compounds read low; inhibition of EC80 agonist-evoked calcium signal; activity change, negative = inhibition, % (concentration not given with the values); 390,000 compounds, 0.02% hits; AID 624415; in the data active means activity change below about -50%; inconclusive means about -30% to -50%; inactive means above about -30%;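 further: stimulus is agonist 54-4 at its EC80 concentration; on the % scale 0 is the no-effect control and ±100 the full control effect; the text of the record puts the active cut at -80%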
# Target sequence (Q9GZU1 whole entry, looked up): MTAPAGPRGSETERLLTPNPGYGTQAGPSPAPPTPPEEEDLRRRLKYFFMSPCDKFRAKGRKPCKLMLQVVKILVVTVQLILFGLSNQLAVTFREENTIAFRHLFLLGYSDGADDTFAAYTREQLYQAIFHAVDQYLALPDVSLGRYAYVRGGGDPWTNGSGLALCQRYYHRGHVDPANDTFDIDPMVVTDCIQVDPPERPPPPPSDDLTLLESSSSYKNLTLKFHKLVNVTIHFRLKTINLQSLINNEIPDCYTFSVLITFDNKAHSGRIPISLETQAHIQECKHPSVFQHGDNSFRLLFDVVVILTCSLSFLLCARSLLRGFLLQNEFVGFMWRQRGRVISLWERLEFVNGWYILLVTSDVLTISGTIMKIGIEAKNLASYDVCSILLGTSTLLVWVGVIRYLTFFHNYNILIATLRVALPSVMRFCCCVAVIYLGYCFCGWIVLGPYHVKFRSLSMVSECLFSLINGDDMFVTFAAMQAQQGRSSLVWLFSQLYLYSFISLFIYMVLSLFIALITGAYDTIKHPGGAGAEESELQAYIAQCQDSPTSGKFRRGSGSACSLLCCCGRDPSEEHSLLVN
#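 TRPML1-DL cells, Tet-induced overnight (~16 h, 37 °C) at 1,500 cells/well, were loaded with Ca8 no-wash dye plus quencher for 45-90 min at room temperature. Compounds were pinned during FDSS kinetic reading; agonist 54-4 at EC80 (4 uM final) then added.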
# Menin-MLL FL inh – displaces fluorescein MLL peptide from human menin; 290,000 tested, under 10 active; Fluorescence polarization, fluorescein-MLL peptide displacement from menin; FP activity change, % at 61.4 µM; AID 1766; inconclusive = falling polarisation curve, or a change in total fluorescence; inactive = total fluorescence flat and polarisation flat or rising; no compound was filed as active; the % refers to the polarisation; negative = inhibition;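 further: % of control where 0% means no effect; inhibitors lower the polarisation; unlabelled MLL peptide was the positive control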
# ClpP mod – qHTS Assay for Activators of ClpP | AID 651965, 2013 | 340,000 compounds, 1.9% hits | Potency, µM (series often up to 57.5 µM), for inactives: at the top dose activity change, negative = active | purified B. subtilis ClpP, FRET peptide cleavage, 20 min; active = well fitted falling curve with a large enough effect; inconclusive = small, poorly fitted or top-dose-only effect; inactive = no such curve, though single readings can be large or run the other way; further: potency means the concentration at half of the fitted maximal effect; the source files actives as falling curves though it sought activators and does not explain the sign; nearly all actives have a fitted effect of over 65% in size; many hits overshoot -100%
# Target sequence (P80244 whole entry, looked up): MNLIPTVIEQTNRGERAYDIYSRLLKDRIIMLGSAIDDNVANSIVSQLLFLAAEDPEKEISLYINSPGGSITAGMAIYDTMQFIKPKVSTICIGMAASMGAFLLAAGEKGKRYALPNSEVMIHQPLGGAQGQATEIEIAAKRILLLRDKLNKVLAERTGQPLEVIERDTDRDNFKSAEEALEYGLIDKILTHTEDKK
#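 ClpP 10 microg/mL final, pH 8 Tris/KCl buffer with BSA, glycerol, Tween-20; compound pinned in; FRET-FV substrate; RT 20 min; Ex320/Em430; ΔFRET vs ADEP 5.8 microM, DMSO, no enzyme.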
# PINK1 modulator – modulators of PINK1 expression | AID 624263 | PINK1 immunofluorescence, high-content cytometry, 24 h | 410,000 compounds, 0.2% hits | Potency, µM (top dose mostly 76.6 µM), inactives show at the top dose activation (PINK1 increase), usual class: activators; active = well fitted activation curve with a large enough effect; inconclusive = small, poorly fitted or top-dose-only effect; inactive = flat fitted curve, though single readings scatter; cell line not stated here;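 further: potency means the concentration at half of the fitted maximal effect; % of control where 0% means no effect; nearly all actives have a fitted effect of over 65% in size; a mitochondrial uncoupler was the plate control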
#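 Fluorescence from anti-PINK1 antibody, together with nuclear and cell stains, was scanned on a laser-scanning cytometer. Before staining, stable-line cells were incubated 24 hours with compounds at 5 concentrations; primary antibody 12 h at 10 degrees C.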
# TRPV1 potentiator – enhances activation of the human vanilloid receptor TRPV1. TRPV1-expressing cells, Fluo-8 calcium influx, capsaicin EC20 potentiation; host cell line not named in the record; control for the full effect not named in the record. potentiation, % at 8.33 µM. Q8NER1. 320,000 compounds, 0.02% hits. AID 540277; active means potentiation above 80%; inconclusive means 30% to 80%; inactive means below 30%; further: 0% is about no effect
#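 Fluo-8 calcium influx in TRPV1-expressing cells, kinetic read (ex 480/em 520 nm). Compound added and read 3 min for agonist activity, followed by capsaicin at EC20 final and 2 min further read for enhancement.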
# TRPML1 agonist – human mucolipin-1 channel agonism | 410,000 compounds, 0.12% hits | TRPML1-expressing cells, Ca2+ dye fluorescence, FDSS; host cell line not named in the record; reference of the full effect not given here | AID 624414 | activation, % (test concentration not listed); in the data active = activation above about 50%; inconclusive = about 30% to 50%; inactive = below about 30%; further: 0% is about no effect; the text of the record puts the active cut at 80%
#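 TRPML1-DL cells, Tet-induced overnight (~16 h, 37 degrees C), loaded 45-90 min at room temperature with Ca8 no-wash calcium dye plus quencher. FDSS fluorescence: 10 s baseline, compound pin-transfer, 110 s agonist read, then EC80 54-4 (4uM final) and 110 s antagonist read.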
# * marks the source's active call; other numbers are inactive results; u = inconclusive; x = not tested or not shown; [ ] = remark or other dose. Some of the compounds tested, so the mix of outcomes need not match the whole.
# Sequence of screens: Sfp PPTase inh, TRPML1 inh, Menin-MLL FL inh, ClpP mod, PINK1 modulator, TRPV1 potentiator, TRPML1 agonist
CN1CCN(C(=O)Cc2nc3ccccc3[nH]2)CC1
→ 1%, 8, -1.3, u, 1.2%, 3, 1.3
CC/C(=N\NC(=O)Nc1ccccc1)c1c(O)n(Cc2ccccc2)c(=O)[nH]c1=O
→ 7%, -1, 1.0, u, -1.3%, 5, -0.6
Clc1ccc(CCC(Cn2ccnc2)Sc2c(Cl)cccc2Cl)cc1 (stereo not drawn)
→ x, 10, x, -5.0%, 3.1%, 10, -0.3
O=C1NC(=O)C2(CCCC2)C(=O)N1
→ x, 4, x, x, 0.6%, x, -0.4
CCCOc1ccc(N2C(=O)CC(N3CC=C(c4ccccc4)CC3)C2=O)cc1 (stereo not drawn)
→ -2%, 24, 3.4, x, 13%, -7, -0.3
CCCCP(=O)(O)c1ccccc1
→ 5%, 17, 0.9, -1.3%, 7.5%[38.3 µM], -5, 0.3
O=C(C1CC(=O)N(C2CCCCC2)C1)N1CCC2(CC1)OCCO2 (stereo not drawn)
→ 7%, 4, 2.3, 1.6%, -0.5%, -20, -0.4
CC1(C)CC(CCNCc2ccc3c(c2)OCO3)(Cc2ccccc2)CCO1 (stereo not drawn)
→ -8%, 33, -0.5, x, -0.6%, -7, 1.2
Cc1ccc(N2C(=O)NC(=O)/C(=C\c3cc(C)n(-c4cc(C(=O)O)cc(C(=O)O)c4)c3C)C2=O)cc1
→ 12%, 8, 3.0, -1.2%, -1.2%, 1, 1.1
Cc1cc(C)[n+](CCCC[n+]2c(C)cc(C)cc2C)c(C)c1
→ x, -3, x, 1.7%, 1.8%, 16, 0.2
CCC(C)n1c(O)c(/C=N/Nc2ccccc2)c(=O)[nH]c1=S (stereo not drawn)
→ 45µM*, -10, 9.7, -0.6%, 0.3%, -21, 0.1
CCOC(=O)c1c(/N=C/C2C(=O)NC(=S)NC2=O)sc2c1CCC2
→ 13µM*, 4, u, x, 0.6%, 10, 6.1
O=c1[nH]c(=O)n(Cc2ccc(F)cc2)c(O)c1C=NCCCn1ccnc1
→ 19%, -2, 1.1, -3.3%, -1.7%, 2, 0.1
CC(C)c1ccc(N=Cc2c(O)n(C3CC3)c(=S)[nH]c2=O)cc1
→ 4%, 9, 15, 1.6%, 3.4%, -10, 0.2
C[C@]12CC(=CO)C(=O)C[C@@H]1CC[C@@H]1[C@@H]2CC[C@@]2(C)[C@H]1CC[C@]2(C)O
→ -14%, x, -1.9, x, x, 16, x
C[C@@H]1CN([C@H](C)CO)C(=O)CCCn2nncc2CO[C@@H]1CN(C)C(=O)Oc1cccc2ccccc12
→ x, -8, x, 1.3%, 2.9%, x, -0.6
CCC(c1nnnn1-c1ccc2c(c1)OCCO2)N1CCC2(CC1)C(=O)NCN2c1ccccc1 (stereo not drawn)
→ x, x, x, -1.4%, -0.9%, x, -0.7
CCC(=NCc1cc(OC)cc(OC)c1)c1c(O)n(C)c(=O)n(C)c1=O
→ 50µM*, -7, -1.1, 1.3%, 2.4%[38.3 µM], 0, 4.0
CCN1CCOC(c2ccccc2)C1 (stereo not drawn)
→ x, -6, x, 1.2%, -0.6%, x, -0.3
C=CCN1C(=O)NC(=O)/C(=C/c2cc3c4c(c2)CCCN4CCC3)C1=O
→ u, -5, x, x, 1.8%, u, -0.7
CC(=O)Nc1cc(C(=O)N2CCC3(CC2)OCCO3)ccc1S(=O)(=O)c1ccc(Cl)cc1
→ 25%, 23, 5.0, -3.2%, 2.9%[38.3 µM], -3, -0.4
CN1CCN(/N=C/c2c(O)n(Cc3ccc(F)cc3)c(=O)[nH]c2=O)CC1
→ 9%, 4, 4.6, 0.1%, -0.8%, 4, -0.4
CCCCN1CCC(O)(c2ccccc2)C(C(=O)c2ccccc2)C1 (stereo not drawn)
→ 8%, 19, 1.1, -3.0%, 1.2%, 21, 0.0
O=C(c1cc(-c2cccnc2)nc2ccc(Cl)cc12)N1CCC2(CC1)OCCO2
→ 11%, 5, -0.2, -8.0%, -1.1%, 5, -0.1
Cc1ccc(OC(=O)N(C)C[C@@H]2OCc3cnnn3CCCC(=O)N([C@@H](C)CO)C[C@H]2C)cc1
→ x, 2, x, 1.9%, 2.7%, x, 0.4
N#Cc1ccccc1Cn1cc(C(=O)c2ccccc2F)c2ccccc21
→ 11%, 9, 1.4, -8.8%, -1.3%, 3, 2.6
C/C(=N\NC(=O)c1ccncc1)c1c(O)n(-c2ccccc2)c(=O)[nH]c1=O
→ 6%, 50, -1.2, -6.4%, 1.9%, -17, 0.4
CN1CCC(N(C)c2nc(-c3ccccc3)nc3ccccc23)CC1
→ 5%, -10, 0.0, -5.5%, 0.3%[38.3 µM], 26, 1.4
Cn1c(O)c(C(=NCCc2c[nH]c3ccccc23)c2ccccc2)c(=O)n(C)c1=O
→ -14%, 14, -2.2, -0.5%, -0.4%, -2, 5.6
CC(C)n1cc(C(=O)N(CC(=O)NC2CCCC2)Cc2ccccc2)cn1
→ 12%, 5, 0.7, 0.0%, -23%[38.3 µM], 14, -0.7
c1ccc2oc(N3CCNCC3)nc2c1
→ -14%, -11, 2.8, -0.5%, 0.8%, 6, -0.8
Cc1cnc[nH]1
→ x, -2, x, -1.3%, 0.2%, -5, 0.6
O=C(Cc1ccccc1)OCn1nnc2ccccc2c1=O
→ 19%, -6, 1.1, -7.5%, x, 19, -0.2
COc1ccc(-c2[nH]ncc2CNC(C)Cc2cccc(C)n2)cc1F (stereo not drawn)
→ 2%, -1, u, x, -0.8%, -6, -0.2
CC12CCC(O)CC1CCC1C2CCC2(C)C(C3=CC(=O)OC3)CCC12O (stereo not drawn)
→ x, 5, x, 1.2%, -3.7%, x, -0.1
CCOC(=O)c1c(/N=C/C2C(=O)NC(=S)NC2=O)sc(C)c1C
→ 25µM*, x, u, x, x, 14, x
O=C(CN1CCCCC1)c1ccc2c(c1)OCO2
→ 13%, 6, 0.0, -5.2%, -1.2%, 0, 0.8
C#C[C@@]1(O)CCC2C3CCC4=C/C(=N/OCC(=O)NC(C(=O)NC(CC(C)C)C(=O)O)C(C)C)CC[C@]4(C)C3CC[C@@]21C (stereo partly drawn)
→ -4%, 11, 0.2, 1.9%, 2.3%, 5, -0.5
C[N+](C)(C)CCc1ccc(O)cc1
→ 6%, x, -5.9, -5.4%, -0.3%, -12, x
OCC#CC[N+]1(CC#Cc2ccccc2)CCOCC1
→ 14%, 12, 4.7, x, 1.0%, 9, 0.0
CCOC(=O)C12C(=O)OCC1C2c1ccccc1 (stereo not drawn)
→ x, x, x, 1.5%, -0.2%, x, -0.6
Fc1ccc(N2CCN(Cc3cc4c(cc3Br)OCO4)CC2)cc1
→ 15%, 10, 3.5, -1.6%, 6.9%, -17, 1.7
CC(C)CN1CCCC2(CCN(C(=O)Oc3ccccc3)CC2)C1
→ 2%, x, 7.8, x, 0.3%, x, x
Nc1c(C(=O)NCCN2CCOCC2)c2nc3ccccc3nc2n1Cc1ccccc1
→ 3%, -4, -0.6, x, 3.3%, -9, -0.4
CCOC(=O)c1c(C)n(Cc2ccccc2)c2ccc(OCC(O)CN3C(=O)CNC3=O)cc12 (stereo not drawn)
→ -22%, -9, 1.1, -7.3%, 0.1%[38.3 µM], -1, 0.1
O=C1N=c2ccccc2=C/C1=C\c1c(O)[nH]c(=S)[nH]c1=O
→ 25µM*, 8, 11, -12%, 0.7%, -10, 0.3
C/C(CC(c1ccccc1)c1c(O)c2ccccc2oc1=O)=N\Nc1ccc([N+](=O)[O-])cc1[N+](=O)[O-] (stereo not drawn)
→ -1%, x, -0.6, -18%, 13%, 2, x
COc1c(C)cc(C(=O)C2CCCN(C3CCOCC3)C2)cc1C (stereo not drawn)
→ -4%, 15, 1.3, -1.4%, -0.3%, 5, -0.3
C=CCn1c(O)c(C(CC)=NCCCO)c(=O)[nH]c1=O
→ 2%, -7, 4.1, 0.6%, -0.1%, -5, 0.1
CN1CC[C@@]2(CCCN(C(=O)c3ccncc3)C2)C1
→ 12%, x, 0.0, x, 0.9%, x, x
O=c1c2ccccc2nc(CN2CCCCCC2)n1-c1ccc(F)cc1
→ -5%, -13, -27, -1.5%, 0.8%[38.3 µM], 9, 0.9
Cc1cc(OCC(=O)NCC2CCC(C(=O)O)CC2)c2c3c(c(=O)oc2c1)CCC3 (stereo not drawn)
→ 28%, x, 8.2, 4.8%, 0.4%, -12, x
CC(C)NC(C)C(=O)c1ccc2ccccc2c1 (stereo not drawn)
→ 5%, 8, -9.0, x, -1.3%, 14, 0.1
CCCCCCn1c(=O)c(C(=O)Nc2cccc(C)n2)c(O)c2ccccc21
→ 6%, -13, -1.8, 1.4%, -0.8%, -5, -0.7
CC([C@H](O)c1ccccc1)N(C)C (stereo partly drawn)
→ 18%, x, -1.5, x, -0.6%, x, x
CC(=O)N1CCC2(CC1)CC(=O)c1cc(OCC(=O)N3CCN(C)CC3)ccc1O2
→ 0%, -1, 6.7, 20µM*, u, 0, 1.0
COc1ccc(-n2c(/C=C3\C(=O)Nc4ccccc43)nc3ccccc3c2=O)cc1
→ 10%, -24, -3.2, x, -0.5%, u, 1.3
CC(=O)N1CCCSC1=Nc1ccccc1
→ 10%, -1, 4.9, x, 0.8%, 13, -0.1
CCOc1cc2c(cc1OCC)-n1cccc1C(c1ccc(C(C)C)cc1)NC2 (stereo not drawn)
→ u, 5, -14, x, u, 19, 0.4
O=c1c2ccccc2nc(-c2ccccc2)n1-c1ccc(O)cc1
→ 12%, u, -5.2, x, 3.6%, 2, 1.4
COCCNC(=O)CN1C2CCC1CC(O)(c1cccnc1)C2 (stereo not drawn)
→ 16%, -10, -0.4, -0.4%, -0.3%, 5, 0.7
O=C(Nc1cccnc1)c1c(O)c2c(n(Cc3ccccc3)c1=O)CCCC2
→ 5%, 6, 2.2, u, 0.1%, 7, 0.3
O=C1NC(=O)C(Sc2ccccc2[N+](=O)[O-])C(=O)N1
→ 20µM*, 30, u, x, 0.0%, 3, 1.8

# Some entries already given, reduced to TRPV1 potentiator and PINK1 modulator.
structure | TRPV1 potentiator | PINK1 modulator
O=c1c2ccccc2nc(-c2ccccc2)n1-c1ccc(O)cc1 | 2 | 3.6%
CCOC(=O)C12C(=O)OCC1C2c1ccccc1 (stereo not drawn) | x | -0.2%
